# Bioassay records from PubChem.
# Sa growth 42C = blocks Staphylococcus aureus growth. S. aureus RN4220 growth, OD600, 20 h, 42 °C; hits give low values. relative growth, % (no concentration beside the values). hit rate 0.53% among 170,000;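 active = growth at 42 °C up to 50% and 20 or more points under that at 30 °C, or under 10% at both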;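 also: 300 nL library stock went into each well; scaled to the means of positive and negative controls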
# HCMV NEC inh = disrupts HCMV UL50-UL53 complex binding. HTRF UL50-UL53 interaction, normalized percent inhibition. inhibition, % (test concentration not listed). hit rate 0.15% among 190,000. AID 1918969;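 active = both replicates at 50% or more, plus weaker picks with an unusually low signal ratio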;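 also: stock transfer was 100 nL into about 20 µL; 0% = negative control wells and 100% = wells with untagged competitor protein; inactives centre near -12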
# GIV Gai3 FP = blocks GIV peptide binding to rat Galpha-i3 | Galpha-i3/FITC-GIV peptide fluorescence polarization, 90 min; hits give low values; scaled: aluminum fluoride 0%, vehicle 100% | percent of control (FP), % (concentration not given with the values) | AID 1224905 | P08753 | hit rate 0.42% among 210,000;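 active = replicate mean at 85% of control or lower, very high polarization wells dropped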;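 also: wells of about 15 µL received 100 nL stock; the first replicate is given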
# Target sequence (P08753 whole entry, looked up): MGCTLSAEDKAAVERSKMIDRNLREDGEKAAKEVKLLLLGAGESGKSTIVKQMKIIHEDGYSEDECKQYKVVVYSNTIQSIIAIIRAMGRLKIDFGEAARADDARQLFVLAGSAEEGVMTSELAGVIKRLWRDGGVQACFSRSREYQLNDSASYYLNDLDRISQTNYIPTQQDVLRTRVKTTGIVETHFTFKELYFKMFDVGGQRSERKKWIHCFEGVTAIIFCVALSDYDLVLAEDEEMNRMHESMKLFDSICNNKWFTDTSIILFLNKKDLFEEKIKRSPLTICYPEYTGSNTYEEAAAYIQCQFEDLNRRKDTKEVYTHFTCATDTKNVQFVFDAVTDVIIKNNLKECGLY
# Sa growth 42C second temp = recorded beside Sa growth 42C, whose call it bears; relative growth, %; measured here: growth at 30 °C;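 optical density after 20 h as mean of two plates; 100% = untreated growth and lower means inhibition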
# * = called active by the depositor; · = not tested or not shown; & = joins results of further samples.
# Order of values: Sa growth 42C second temp, GIV Gai3 FP, HCMV NEC inh, Sa growth 42C
CC(C)(CNC(=O)Cc1ccccc1F)N1CCOCC1
    88, ·, -6, 80
COc1ccc(NC(=O)CCN2CCN(CCO)CC2)cc1
    86, 101, 2, 93
N#Cc1ccc(CSc2nc(-c3cccs3)c(-c3cccs3)[nH]2)cc1
    95, ·, 7, 83
COc1ccc(-c2nc(CN3CCN(S(=O)(=O)c4ccccc4)CC3)c(C)o2)cc1
    ·, 104, -20, ·
Cc1cc(C)cc(NC(=O)c2cnc(N(C)C)nc2C)c1
    ·, 102, -20, ·
CCOC(=O)C1CCN(C(=O)c2cc(C)n(C(C)(C)C)n2)CC1
    85, 101, -15, 106
CCOC(=O)c1ccc2nc(C)cc(Nc3ccc(OC(C)C)cc3)c2c1
    93, 140, -23, 91
COc1ccc(NC(=O)C2=C(C)Nc3c(C(=O)Nc4ccc(C)cc4)cnn3C2c2cc(OC)ccc2OC)cc1 (stereo unspecified)
    86, 100, ·, 91
COc1ccccc1CNc1nc(-c2cccnc2)nn1C(=O)c1cccnc1
    77, 97, ·, 82
CCOC(=O)c1sc(NC(=O)C2c3ccccc3Oc3ccccc32)c(C#N)c1C
    87, 106, 2, 101
CCc1cccc(NC(=O)C2CCC(CNS(=O)(=O)c3csc(C(N)=O)c3)CC2)c1 (stereo unspecified)
    89, 97, ·, 109
CCOC(=O)c1sc(N)c(C(=O)OCC)c1C
    93, ·, -4, 83
O=C(NCc1ccc(Cl)cc1Cl)c1cccc(N2CCCS2(=O)=O)c1
    81, 104, 9, 102
CN(Cc1cccs1)S(=O)(=O)c1ccc(Cl)nc1
    84, ·, -19, 106
CCS(=O)(=O)c1ccc(-c2ccc(NC(=O)c3ccc(C(C)(C)C)cc3)cc2)nn1
    ·, 97, -3, ·

# Part of the list above, reduced to Sa growth 42C, Sa growth 42C second temp and HCMV NEC inh.
molecule,Sa growth 42C,Sa growth 42C second temp,HCMV NEC inh
N#Cc1ccc(CSc2nc(-c3cccs3)c(-c3cccs3)[nH]2)cc1,83,95,7
COc1ccc(-c2nc(CN3CCN(S(=O)(=O)c4ccccc4)CC3)c(C)o2)cc1,·,·,-20

# Continued:
# Order of values: Sa growth 42C second temp, GIV Gai3 FP, HCMV NEC inh, Sa growth 42C
CCn1nc(C)c(CCNC(=O)c2sc3ncccc3c2-n2cccc2)c1C
    ·, 100, -23, ·
COc1cc(C(=O)NCc2nc3ccccc3n2C(C)C)cc(OC)c1OC
    77, 96, -22, 88
Cc1cccc(C(=O)Nc2ccc(N(C)C)cc2)c1
    93, 103, -6, 94
O=C(CSC1=NCCS1)c1ccc(Cl)s1
    25, ·, -50, 42
O=C(Nc1nc(-c2ccccc2)cs1)NC1CCCCC1
    ·, 104, -2, ·
CCn1c(CN2CCN(C(C)=O)CC2)nc2cc(NC(C)=O)ccc21
    ·, 101, -12, ·
COc1ccc2[nH]c(C)c(CCNS(=O)(=O)c3cc(F)ccc3OC)c2c1
    89, 106, 3, 122
O=C(CN1c2ccccc2S(=O)(=O)c2ccccc21)NC1CCCCCC1
    104, 110, 5, 101
Cc1ccc(-c2noc(-c3ccccc3OCC(=O)Nc3nnc(C)s3)n2)cc1
    ·, 94, -14, ·
CS(=O)(=O)c1ncc(Cl)c(C(=O)N2CCN(C(c3ccccc3)c3ccccc3)CC2)n1
    0.3*, 103, -10, 4.2*
COc1ccc(CCC(=O)Nc2ccccc2CCc2nc3ccccc3n2C)cc1
    ·, 106, -27, ·
CCOC(=O)N1CCC(NC(=O)c2ccc3c(c2)N(Cc2ccccc2C)C(=O)c2ccccc2S3=O)CC1 (stereo unspecified)
    82, 105, -27, 99
CCOCCCNC(=O)C1CCN(C(=O)c2cc3sccc3n2C)CC1
    85, 107, -6, 100
Cc1cc(F)ccc1NC(=O)C(C)n1nc(-c2ccc(C)c(S(N)(=O)=O)c2)c2c(c1=O)CCCC2 (stereo unspecified)
    ·, 108, -31, ·
CCn1ccc(C(C)C)c1-c1ccccc1
    91, ·, 0, 101
Cn1/c(=N/N=C2\CCCCC2=O)sc2ccccc21
    87, ·, -2, 120
O=C(NCc1cccnc1)c1nn(-c2ccccc2F)nc1CO
    94, 100, 4, 91
CCCN(CCC)S(=O)(=O)c1cccc(S(C)(=O)=O)c1
    96, 102, -27, 98
O=C(OCC(=O)N1CCc2ccccc21)c1sc2ccccc2c1Cl
    85, ·, -39, 115
COc1ccccc1-c1csc(-c2nnn(-c3cccc(Cl)c3)c2N)n1
    ·, 121, -8, ·
CC(C)CCNC(=O)CCCCn1c(=O)c2ccccc2n(CC(=O)Nc2ccccc2)c1=O
    ·, 102, -6, ·
CCOC(=O)c1ccc(NC(=O)c2c(NCc3cccc(OC)c3OC)sc3c2CCC3)cc1
    84, 106, ·, 106
Cc1ccc2c(c1)C(N1CCN(C)CC1)=Nc1cccnc1N2
    ·, 109, 2, ·
O=C(c1ccccc1NS(=O)(=O)c1cccc2nsnc12)N1CCOCC1
    109, 103, -113, 74
O=c1cc(CNc2ccc(Br)cc2)nc2nc(-c3ccc(F)cc3)[nH]n12
    ·, 111, -11, ·
Cc1cc(C(=O)CSc2nnc(-c3c[nH]c4ccccc34)o2)c(C)n1C1CC1
    86, ·, -34, 78
Cc1cc(=O)n2[nH]c(CN(C(=O)CC(C)C)c3ccc(Cl)cc3)nc2n1
    ·, 102, -10, ·
CCCCCOc1ccc(C2Nc3ccccc3NC3=C2C(=O)CC(C)(C)C3)cc1 (stereo unspecified)
    ·, 92, -6, ·
O=S(=O)(c1cnc[nH]1)N1CCCC1c1ccccc1F (stereo unspecified)
    ·, 96, -2, ·
CCC(=O)Nc1ccc(C(=O)n2nnc3ccccc32)cc1
    90, 103, -6, 106
c1nncn1N=C1CCCCCC1
    93, ·, 5, 69
CCOC(=O)c1noc2ncn(CC(=O)N(CC)CC)c(=O)c12
    ·, 107, -12, ·
CC1CCCC(=O)C1 (stereo unspecified)
    90, ·, -26, 90
Cc1ccc2c(c1)sc(=NC(=O)/C=C/c1ccc(Br)o1)n2C
    91, ·, -36, 105
Cc1ccc(C)c(N2CCN(C(=O)CN3C(=O)COc4ccc(S(=O)(=O)N5CCOCC5)cc43)CC2)c1
    94, 98, -18, 101
O=C(Nc1cccc(Cl)c1)C(Cc1ccccc1)n1cccc1 (stereo unspecified)
    73, 100, -17, 76
O=C1COc2cc(S(=O)(=O)N3CCCC(C(=O)NC4CCCCC4)C3)c(Cl)cc2N1 (stereo unspecified)
    ·, 98, -14, ·
CCC(=O)N1N=C(c2c(O)n(C)c(=S)n(C)c2=O)CC1c1ccc(C(C)C)cc1 (stereo unspecified)
    ·, 97, -15, ·
CN(C)c1ccc(/C=C2/SC(=S)N(CCCCC(C(=O)O)N3C(=O)/C(=C\c4ccc(N(C)C)cc4)SC3=S)C2=O)cc1 (stereo unspecified)
    ·, 170, -9, ·
CCCNC(=O)c1ccc2c(c1)C(=O)N(CCC)C2O (stereo unspecified)
    87, 104, -3, 112
CSCC[C@H](NC(=O)COc1ccc2c3c(c(=O)oc2c1)CCC3)C(=O)O
    ·, 100, -25, ·
Cc1c(C(=O)NCc2ccccc2Cl)sc2nc3n(c(=O)c12)CCCCC3
    96, 104, 3, 119
COc1cc(NC(=O)NCCCn2c(-c3ccc(F)cc3)nc3cccnc32)cc(OC)c1
    ·, 102, -18, ·
O=C(CSc1nc2c(c(=O)[nH]1)CN(Cc1ccc3c(c1)OCO3)CC2)Nc1ccc(F)cc1
    87, 102, -25, 116
N#CCCn1cc(C(=O)Nc2ccc(C(=O)O)cc2)c(-c2cccc(Br)c2)n1
    108, 98, -1, 104
Cc1cc(NC(=O)CCC(=O)N(Cc2ccccc2)C2(C(=O)NC3CCCCC3)CCCC2)no1
    94, 99, -25, 98
O=C1Nc2ccc(Cl)cc2[C@@](C#CC2CC2)(C(F)(F)F)O1
    77&69, 103, -33&-84, 91&83
O=C(NCCC1=CCCCC1)C1CCCN(c2ccc(-c3ccccc3)nn2)C1 (stereo unspecified)
    ·, 93, -7, ·
C=C(C)C(=O)Oc1cccc(N2C(=O)CCC2=O)c1
    78, ·, -12, 126
CCCCNC(=O)c1ccc2c(c1)ncn2C1CCCC1
    83, 101, -17, 89
Cc1[nH]c2ccccc2c1Cc1nnc(SCc2ccccc2)o1
    89, 99, -9, 94
COC(=O)c1ccc(C2Nc3ccccc3-c3nnc(SC)nc3O2)cc1 (stereo unspecified)
    ·, 99, -21, ·
O=C(CSc1nc(-c2ccco2)nc2cc(=O)[nH]n12)Nc1ccc(F)cc1
    62, 93, ·, 78
COc1ccc(CCNc2nc(C)cc(C)n2)cc1OC
    93, 99, 6, 88
Cc1ccc(S(=O)(=O)Nc2ccc3c(c2)nc2n3CCN(Cc3ccccc3)C2)cc1
    96, 105, -8, 98
Cn1ccnc1SCC(=O)NC1CCCCC1
    84, ·, -26, 116
COc1cc2c(cc1OC)CN(C(=O)c1ccc3c(c1)CCC3)CC2
    87, ·, -29, 106
N#Cc1c(-n2ncnc2-c2ccccc2C(F)(F)F)sc2c1CCCCC2
    94, 108, -45, 101
Cc1ccc(S(=O)(=O)N2CCCC2C(=O)Nn2cnnc2)cc1 (stereo unspecified)
    93, 102, ·, 108
Cc1cccc(O)c1O
    79, ·, -19, 56

# (next part)
# Order of values: Sa growth 42C second temp, GIV Gai3 FP, HCMV NEC inh, Sa growth 42C
Cn1c(=O)c2c(-c3ccc(Br)cc3)n(CC3CCCO3)cc2n(C)c1=O (stereo unspecified)
    ·, 98, -1, ·
O=C1/C(=C/c2ccncc2)COc2ccccc21
    91, 101, -10, 104
O=C(NCCCn1c(-c2ccncc2)nc2cccnc21)Nc1ccccc1
    ·, 99, 3, ·
CC(C)OC(=O)/C=C/c1cn(-c2ccccc2)nc1-c1cccs1
    88, ·, -22, 94
O=C(Nc1ccccc1)Nc1cccc(N2CCn3c(nc4cc(Cl)ccc43)C2)c1
    ·, 98, -2, ·
Clc1ccc(-c2cnc(Oc3ccccc3)nc2)cc1
    ·, 100, 9, ·
O=C(O)Cn1c(CN2CCCCC2)nc2ccccc21
    75, 104, -25, 92
COC(=O)N1CCN(c2ccc(C)cc2)C(C)C1 (stereo unspecified)
    105, 103, -1, 131
O=C(Nc1cc(-c2cccc(F)c2)no1)c1ccc2c(Cl)c3c(nc2c1)CCCC3
    91, 104, -11, 107
Cc1ccc2c(c1)c1c(c(=O)n(-c3cccc(Cl)c3)c(=O)n1CC(=O)c1ccc(Cl)cc1)n2C
    102, 107, -12, 95
COc1cccc(CNC(=O)c2cnc(N3CCCC3)nc2C)c1
    88, 104, ·, 95
N#Cc1cccc(NC(=S)Nc2ccccc2)c1
    68, ·, 2, 82
O=C1CCCN1c1ccc(S(=O)(=O)NC2CC2)c(Cl)c1
    86, 102, -35, 89
Cc1sc2c(c1C)c(=O)n(-c1cccc(C(F)(F)F)c1)c(=O)n2Cc1ccccc1C#N
    106, 104, 11, 97
CC(C)(C)n1cnc2cc(NCc3cccs3)ccc21
    77, 98, -34, 95
O=C(O)CCCC(=O)N1N=C(c2c(-c3ccccc3)c3cc(Cl)ccc3[nH]c2=O)CC1c1ccccn1 (stereo unspecified)
    ·, 100, -25, ·
O=S(=O)(c1ccc(F)cc1)c1nc(-c2ccccc2)oc1N1CCCC1
    ·, 105, -29, ·
Cc1nnc(-c2cccc(S(=O)(=O)N3CCN(C(c4ccccc4)c4ccccc4)CC3)c2)o1
    97, 110, -5, 117
Cc1ccc2[nH]c3c(c2c1)CCCC3N1CCOCC1 (stereo unspecified)
    88, 103, -15, 84
CSc1cccc(NC(=O)CN(c2cc(C)cc(C)c2)S(=O)(=O)c2c(C)noc2C)c1
    ·, 95, 2, ·
O=C(O)c1cccc(Nc2ncnc3ccc(Br)cc23)c1
    109, 111, 6, 104
N#CCCn1nc(-c2ccc(F)cc2)ccc1=O
    85, 103, -65, 91
CCN(CC)C(=O)CN1C(=O)c2cccc3cccc1c23
    105, 102, -25, 101
O=C(NCc1ccccc1)c1ccc2ccccc2n1
    98, ·, 14, 87
Cc1cc(C)nc(SCC(=O)OCc2cc(=O)n3cc(Br)ccc3n2)n1
    90, ·, -50, 103
O=c1c2ccccc2n(Cc2cc(=O)n3ccccc3n2)c(=O)n1Cc1ccccc1
    ·, 103, -28, ·
Fc1ccc(-c2ccc(CNCCCn3ccnc3)o2)cc1
    ·, 104, -13, ·
O=C(NCCCn1ccnc1)c1cnn2c1NC(c1ccccc1)CC2C(F)(F)F (stereo unspecified)
    98, 112, 12, 109
COc1cccc(C2=NS(=O)(=O)N(C)C(C(=O)N3CCCC3)=C2)c1
    82, 99, -67, 86
CC(C)Oc1cccc(C(=O)n2cnnc2N)c1
    101, 107, -28, 108
CCCN1CCN(C(=O)CC(=O)Nc2ccc3nc4n(c(=O)c3c2)CCCCC4)CC1
    84, 102, -17, 82
CC(=O)Nc1cc(C(=O)N(C)CCC#N)ccc1Sc1ccc(Cl)cc1
    81, 107, 4, 99

# Already shown: entries from further up.
# Order of values: Sa growth 42C second temp, GIV Gai3 FP, HCMV NEC inh, Sa growth 42C
Fc1ccc(-c2ccc(CNCCCn3ccnc3)o2)cc1
    ·, 104, -13, ·
O=C(NCCCn1ccnc1)c1cnn2c1NC(c1ccccc1)CC2C(F)(F)F (stereo unspecified)
    98, 112, 12, 109
COc1cccc(C2=NS(=O)(=O)N(C)C(C(=O)N3CCCC3)=C2)c1
    82, 99, -67, 86
CC(C)Oc1cccc(C(=O)n2cnnc2N)c1
    101, 107, -28, 108
CCCN1CCN(C(=O)CC(=O)Nc2ccc3nc4n(c(=O)c3c2)CCCCC4)CC1
    84, 102, -17, 82
CC(=O)Nc1cc(C(=O)N(C)CCC#N)ccc1Sc1ccc(Cl)cc1
    81, 107, 4, 99
